Vaccinia mCherry: qHTS for Stage-Specific Inhibitors of Vaccinia Orthopoxvirus: mCherry Reporter Primary qHTS; Vaccinia virus mCherry reporter infection, fluorescence; about a quarter of the inactives have no number; 310,000 compounds, 0.63% hits; Potency, µM (highest dose often 36.5 µM), inactives show at the top dose activity change, negative = inhibition, usual class: inhibitors; active = well fitted inhibition curve with a large enough effect; inconclusive = small, poorly fitted or top-dose-only effect; inactive = no such curve, though single readings can be large or run the other way; tested in A549 cells; further: nearly all actives have a fitted effect of over 35% in size; inactives centre near -10
VACV Venus inh: qHTS for Stage-Specific Inhibitors of Vaccinia Orthopoxvirus: Venus Reporter Primary qHTS; Vaccinia virus Venus reporter expression, fluorescence; Potency, µM (highest dose often 36.5 µM), for the others: top-dose activity change, negative = inhibition, hits mostly inhibitors; 330,000 compounds, 0.46% hits; active means well fitted inhibition curve with a large enough effect; inconclusive means small, poorly fitted or top-dose-only effect; inactive means no such curve, though single readings can be large or run the other way; tested in A549 cells; further: nearly all actives have a fitted effect of over 30% in size; inactives centre near -10
The depositor's hits bear a star; [ ] = dose if it differs, or a comment. On the % scale 0 is the no-effect control and ±100 the full control effect; potency means the concentration at half of the fitted maximal effect. Rows are unselected. About 0.86% of those tested had a hit in this group.

`CC1(C(=O)CSc2nc3ccccc3s2)CCC(=O)O1` (stereo not drawn) gave VACV Venus inh -16%.
For Cc1cc(C)c(NC(=O)CN(c2ccccc2)S(=O)(=O)N(C)C)c(C)c1 the results were Vaccinia mCherry 1% and VACV Venus inh 4%.
`COc1ccc(CCNC(=O)CCn2c(=O)c3cccn3c3cccnc32)c(OC)c1OC` gave Vaccinia mCherry -7% and VACV Venus inh -6%.
CC(=O)c1c(N)nc2n(c1=O)CCCCC2 was read as Vaccinia mCherry -13% and VACV Venus inh -13%.
Nc1c(C(=O)N/N=C/c2ccc([N+](=O)[O-])cc2)cnn1-c1ccccc1 was read as Vaccinia mCherry -1% and VACV Venus inh -7%.
For COc1cccc(-c2sc3ccc(OC)cc3c2-c2ccc(O)cc2)c1 the results were Vaccinia mCherry -23% and VACV Venus inh -25%.
`Cc1ccc2c(c1)[C@H]1OCC[C@H]1[C@@H](c1ccncc1)N2` gave Vaccinia mCherry -3% and VACV Venus inh 1%.
`O=C1c2cc([N+](=O)[O-])ccc2-c2cc(Cl)c(NC(=O)C(F)(F)F)cc21` gave Vaccinia mCherry -5% and VACV Venus inh -2%.
CCOC(=O)C(NCc1ccccc1OC)(NC(=O)c1ccccc1)C(F)(F)F (stereo not drawn) was read as Vaccinia mCherry -1% and VACV Venus inh -11%.
Screening CCc1ccc(OCC2c3cc(OC)c(OC)cc3CCN2C(=O)c2ccc(S(=O)(=O)N3CCCC3)cc2)cc1 (stereo not drawn) returned Vaccinia mCherry 1% and VACV Venus inh -3%.
O=C(NNc1cccc(Cl)c1)c1cccnc1Cl was read as Vaccinia mCherry -6% and VACV Venus inh -8%.
`C#CCN1C(=O)C2(OCCO2)c2ccccc21` gave Vaccinia mCherry -12% and VACV Venus inh 0%.
Screening CC1CCN(C(=O)CCc2ccc(S(=O)(=O)NC(C)(C)C)cc2)CC1 returned Vaccinia mCherry inactive and VACV Venus inh -24%.
Cc1cc(NS(=O)(=O)c2ccc(NC(=O)c3ccc(Cl)cc3[N+](=O)[O-])cc2)no1 was read as Vaccinia mCherry inactive and VACV Venus inh -16%.
COc1ccc(C)cc1NC(=O)c1cccc(-c2ccc(OC(C)=O)cc2)c1 was read as Vaccinia mCherry -25% and VACV Venus inh -17%.
Screening CCOC(=O)c1cccc(P(C)(C)=O)c1 returned Vaccinia mCherry -17% and VACV Venus inh -15%.
CCOC(=O)c1ccccc1NC(=O)Cc1c(C(=O)O)c(C)cn1C was read as Vaccinia mCherry 0% and VACV Venus inh -3%.
`COc1cc(-c2nc3cnccc3n2C)cc(OC)c1OC` gave VACV Venus inh 1%.
Screening O=C(N/N=C/c1ccccc1)c1[nH]ncc1Br returned Vaccinia mCherry 1% and VACV Venus inh 0%.
For CCOc1cc(/C=C2\SC(=N)N(c3nonc3N)C2=O)ccc1OCCN1CCOCC1 the results were Vaccinia mCherry inconclusive and VACV Venus inh inconclusive.

The last three entries of the part above come first, to join the parts.
`COc1cc(-c2nc3cnccc3n2C)cc(OC)c1OC` gave VACV Venus inh 1%.
Screening O=C(N/N=C/c1ccccc1)c1[nH]ncc1Br returned Vaccinia mCherry 1% and VACV Venus inh 0%.
For CCOc1cc(/C=C2\SC(=N)N(c3nonc3N)C2=O)ccc1OCCN1CCOCC1 the results were Vaccinia mCherry inconclusive and VACV Venus inh inconclusive.
For CC(C)(C)[C@@H]1COC(=O)[C@H](Cc2ccc(F)cc2)C/C=C\C[C@@H](CC(=O)N(CCO)Cc2ccccc2)C(=O)N1 the results were Vaccinia mCherry inactive and VACV Venus inh inconclusive.
For COCCCN(CCNC(=O)c1ccc(NC2=NC3CS(=O)(=O)CC3S2)cc1)Cc1ccco1 (stereo not drawn) the results were Vaccinia mCherry inactive and VACV Venus inh -6%.
Screening O=C(COc1ccc([N+](=O)[O-])cc1)N(C1CCCCC1)C1CCS(=O)(=O)C1 (stereo not drawn) returned Vaccinia mCherry -4% and VACV Venus inh -7%.
Screening O=C(Nc1ccccc1)c1cccc(N2C(=O)C3C4C=CC(C5CC45)C3C2=O)c1 (stereo not drawn) returned Vaccinia mCherry -8% and VACV Venus inh -20%.
Screening O=S(=O)(Nc1ccc(-c2ccc(N3CCCCCC3)nn2)cc1)c1cccc(C(F)(F)F)c1 returned Vaccinia mCherry -21% and VACV Venus inh -21%.
For Cc1ccccc1Cn1c2ccccc2c2cnn(CC(=O)NCCCN3CCN(C)CC3)c(=O)c21 the results were Vaccinia mCherry -9%[7.34 µM] and VACV Venus inh -4%[7.34 µM].
For CC(C)COc1cccc(C(=O)Nc2ccc(-c3nc4ncccc4o3)cc2)c1 the results were Vaccinia mCherry inactive and VACV Venus inh -15%.
For Cc1ccccc1NC(c1cccc(Cl)c1)c1nnnn1C1CCCCC1 (stereo not drawn) the results were Vaccinia mCherry -13% and VACV Venus inh -6%.
Screening CCOc1ccc(NC(=O)CNC(=O)c2ccc([N+](=O)[O-])cc2)cc1 returned Vaccinia mCherry inactive and VACV Venus inh -11%.
Screening CCC(=O)N(C)/C=C1\Sc2ccccc2C1=O returned Vaccinia mCherry 59%[activator] and VACV Venus inh 9%.
For CC(=O)NC1(C(F)(F)F)NC(=O)N(CCc2ccccc2)C1=O (stereo not drawn) the results were Vaccinia mCherry -15% and VACV Venus inh -1%.
For Cc1ccc(S(=O)(=O)N(C)Cc2nc(-c3ccccn3)no2)cc1 the results were Vaccinia mCherry -15% and VACV Venus inh -10%.
Screening O=C(CCCN1C(=O)/C(=C\c2ccccc2)SC1=S)Nc1ccc(C(=O)O)cc1 returned Vaccinia mCherry inactive and VACV Venus inh 0%.
For O=C1CC(C(=O)O)(c2ccccc2)c2cccc(F)c21 (stereo not drawn) the results were Vaccinia mCherry -3% and VACV Venus inh -8%.
Screening CCCCOC(=O)C1CCC[C@@H](C)N1 (stereo partly drawn) returned VACV Venus inh -8%.
Screening COc1cc(OC)cc(-c2nc3ccccc3c(=O)n2OC(=O)c2ccc(C)c(C)c2)c1 returned Vaccinia mCherry inconclusive and VACV Venus inh inconclusive.
C/C(=N\NC(=O)OC(C)(C)C)c1cccc([N+](=O)[O-])c1 was read as Vaccinia mCherry inactive and VACV Venus inh 0%.
For CCOC(=O)C1C(=O)C=C(C)C(C(=O)OCC)C1c1cccc([N+](=O)[O-])c1 (stereo not drawn) the results were Vaccinia mCherry -9% and VACV Venus inh -2%.
For CN(C)C(=O)c1cccc(-c2cccc(-c3nc(C(=O)NCc4ccccc4)cc4c3[C@H](CCO)N(S(=O)C(C)(C)C)C4)c2)c1 (stereo partly drawn) the results were Vaccinia mCherry 17% and VACV Venus inh 0%.
For CC1CC(C)CN(C(=O)c2cccc(S(=O)(=O)N(C)c3ccccc3)c2)C1 (stereo not drawn) the results were Vaccinia mCherry inactive and VACV Venus inh -12%.
CCOC(=O)c1[nH]cnc1N=Nc1c(O)ccc2ccccc12 was read as Vaccinia mCherry 188%[activator] and VACV Venus inh 155%[activator].
For C=CCn1c(SCc2nc3ccccc3[nH]2)nnc1-c1ccncc1 the results were Vaccinia mCherry inactive and VACV Venus inh -4%.
Cc1ccc2oc3c(c(=O)c2c1)C(c1ccc(F)cc1)N(Cc1ccc2c(c1)OCO2)C3=O (stereo not drawn) was read as Vaccinia mCherry -13% and VACV Venus inh -4%.
Screening CN(C)c1ccc(S(=O)(=O)NCC(=O)NCCC2=CCCCC2)cc1[N+](=O)[O-] returned Vaccinia mCherry -19% and VACV Venus inh -13%.
Screening COc1ccccc1CNC(=O)C1CCN(c2nn3c(=O)cc(C)nc3s2)CC1 returned Vaccinia mCherry 0% and VACV Venus inh -12%.
For COc1ccc(COCC(O)CN2CC(C)OC(C)C2)cc1OC (stereo not drawn) the results were Vaccinia mCherry inactive and VACV Venus inh -9%.
Screening Cn1c(=O)c(/C=C/c2ccc(F)cc2)nc2ccccc21 returned Vaccinia mCherry -15% and VACV Venus inh -6%.
NC(=O)CC(NC(=O)Cc1ccc(Br)cc1)c1ccc(NC2CCC2)c([N+](=O)[O-])c1 (stereo not drawn) was read as Vaccinia mCherry inactive and VACV Venus inh -27%.
For CCN1CCN(c2ncc(C(=O)Nc3cc(Cl)ccc3OC)c3ccccc23)CC1 the results were Vaccinia mCherry inconclusive and VACV Venus inh inconclusive.
For COc1ccc(CC(=O)Nc2ccccc2C(=O)N2CCOCC2)cc1 the results were Vaccinia mCherry inactive and VACV Venus inh -8%.
For Cc1cccc(-c2nc3c4ccccc4nc(NCc4ccc(Cl)cc4)n3n2)c1 the results were Vaccinia mCherry -13% and VACV Venus inh -19%.
CCCCn1nnnc1C(c1cc2ccccc2o1)N1CCN(CCN(C)C)CC1 (stereo not drawn) was read as Vaccinia mCherry 1% and VACV Venus inh 0%.
For Cc1ccc(S(=O)(=O)N2CCC(CN3C(=O)c4cccc5cccc(c45)C3=O)CC2)cc1 the results were VACV Venus inh -17%.
Screening CCOC(=O)c1c(NC(=O)CS(=O)(=O)c2ccc(C)cc2)sc2c1CCC(C)C2 (stereo not drawn) returned Vaccinia mCherry inactive and VACV Venus inh -9%.
Cc1cccn2c(CN(C)CC3CCCCO3)c(C(=O)N3CCCCC3)nc12 (stereo not drawn) was read as Vaccinia mCherry inactive and VACV Venus inh -9%.
`CC(C)=C(NC(=O)c1ccccc1)C(=O)NCCCC(=O)O` gave Vaccinia mCherry inactive and VACV Venus inh -10%.
`C[C@@H](OC(=O)N1CCCCC1)[C@H]1O[C@]2(C)CCCC[C@H]1O2` gave Vaccinia mCherry -2% and VACV Venus inh -6%.
For COc1ccc(C(=O)N/N=C/c2cccc3cccnc23)cc1 the results were VACV Venus inh inconclusive.
Screening CC(C)C#Cc1ccc2c(c1)O[C@@H](CN(C)S(=O)(=O)c1cn(C)cn1)[C@@H](C)CN([C@H](C)CO)S2(=O)=O returned Vaccinia mCherry inactive and VACV Venus inh -17%.
`CCCCC1=CC2=C(c3ccco3)C(=O)C(C)(OC(=O)c3ccc(OC)cc3)C(=O)C2=CN1Cc1ccco1` (stereo not drawn) gave Vaccinia mCherry -4% and VACV Venus inh -10%.
For COc1ccc(NS(=O)(=O)c2cc(NC(=O)/C=C/c3cc(OC)ccc3OC)ccc2N2CCCCC2)cc1 the results were Vaccinia mCherry -15% and VACV Venus inh -6%.
Screening CC(C)(C)N(CC(=O)NC1CCCCC1)C(=O)CS(=O)CC(=O)Nc1ccc(F)cc1 (stereo not drawn) returned Vaccinia mCherry -2% and VACV Venus inh 1%.
Screening CCc1ccc(C(O)c2ncc(-c3ccc(C)cc3)[nH]2)cc1 (stereo not drawn) returned Vaccinia mCherry 16% and VACV Venus inh -11%.
`Cc1nc(CS(=O)(=O)c2ccc(Cl)cc2)sc1C(=O)O` gave Vaccinia mCherry inactive and VACV Venus inh -7%.
For O=C(CCc1ccccc1)NCC(=O)N/N=C/c1ccc2c(c1)OCO2 the results were Vaccinia mCherry inactive and VACV Venus inh -7%.
CCc1ccc(CNC(=O)c2ccc3c(Cl)c4c(nc3c2)CCCC4)cc1 was read as Vaccinia mCherry -14% and VACV Venus inh -5%.
For CN(C)S(=O)(=O)c1cccc(NC(=O)Cc2ccsc2)c1 the results were Vaccinia mCherry 13µM* and VACV Venus inh inconclusive.
O=C(CSc1nc(N2CCOCC2)nc(N2CCOCC2)n1)Nc1ccc(Cl)cc1Cl was read as Vaccinia mCherry -16% and VACV Venus inh -10%.
For Cc1ccc(C(=O)Nc2nc(C(C)(C)C)cs2)s1 the results were VACV Venus inh inconclusive.
`Cc1nnc(SC(C)C(=O)c2c[nH]c3ccccc23)n1C1CC1` (stereo not drawn) gave Vaccinia mCherry inactive and VACV Venus inh -10%.
O=C(Nc1ccc(Cl)cc1)N(Cc1cccnc1)Cc1ccco1 was read as Vaccinia mCherry inactive and VACV Venus inh -9%.
Screening C#CCOCCOCCOCCNc1nc(N2CCN(C(=O)CCCCCCCCCCNC(=O)[C@H](CCCCN)n3cc(C[C@@H](C)CC)nn3)CC2)nc(N2CCN(C(=O)CCCCCCCCCCNC(=O)[C@H](CCCN=C(N)N)n3cc(C[C@@H](C)CC)nn3)CC2)n1 returned Vaccinia mCherry inconclusive and VACV Venus inh 8.9µM*.
Screening Cc1nnc(C)n1/N=C/c1cc2ccccc2nc1Cl returned Vaccinia mCherry -8% and VACV Venus inh -5%.
Screening Cc1oc(-c2cc(F)ccc2F)nc1CN1CCC(C(=O)N2CCOCC2)CC1 returned Vaccinia mCherry inactive and VACV Venus inh -6%.
For COc1cc2ccccc2cc1C(=O)N/N=C/c1cccs1 the results were Vaccinia mCherry inconclusive and VACV Venus inh inconclusive.
For O=C(O)Cc1ccc(Nc2cnn(C34CC5CC(CC(CC(=O)O)(C5)C3)C4)c(=O)c2Cl)cc1 the results were Vaccinia mCherry inactive and VACV Venus inh 3%.

Structural class: the compounds so far containing an aryl thioether with sulfur outside any ring.
`CC1(C(=O)CSc2nc3ccccc3s2)CCC(=O)O1` (stereo not drawn) gave VACV Venus inh -16%.
For C=CCn1c(SCc2nc3ccccc3[nH]2)nnc1-c1ccncc1 the results were Vaccinia mCherry inactive and VACV Venus inh -4%.
O=C(CSc1nc(N2CCOCC2)nc(N2CCOCC2)n1)Nc1ccc(Cl)cc1Cl was read as Vaccinia mCherry -16% and VACV Venus inh -10%.
`Cc1nnc(SC(C)C(=O)c2c[nH]c3ccccc23)n1C1CC1` (stereo not drawn) gave Vaccinia mCherry inactive and VACV Venus inh -10%.

Bioassay records: PubChem BioAssay, National Center for Advancing Translational Sciences (NCATS)
